# PINK1 expr mod = A Quantitative High throughput Screen to Identify Chemical Modulators of PINK1 Expression; AID 624263, 2012; Potency, µM (doses to about 76.6 µM), for inactives: at the highest dose activation (PINK1 increase), actives largely listed as activators; PINK1 immunofluorescence, high-content cytometry, 24 h; 410,000 compounds, 0.2% hits; active = well fitted activation curve with a large enough effect; inconclusive = small, poorly fitted or top-dose-only effect; inactive = flat fitted curve, though single readings scatter; cell line not stated here;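 note: potency is the fitted concentration of half-maximal effect; % of control where 0% means no effect; nearly all actives have a fitted effect of over 65% in size; a mitochondrial uncoupler was the plate control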
#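 Measures PINK1 amount and localization on or inside mitochondria by immunofluorescence. Stable cells get compounds at 5 concentrations for 24 hours before fixation and staining; CCCP controls included.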
# TRPML1 ag = qHTS for Agonists of the Human Mucolipin Transient Receptor Potential 1 (TRPML1) | AID 624414, 2012 | Mucolipin-1 (Homo sapiens), Q9GZU1 | 410,000 compounds, 0.12% hits | TRPML1-expressing cells, Ca2+ dye fluorescence, FDSS; host cell line not named in the record; reference of the full effect not given here | activation, % (concentration not given with the values); in the data active = activation above about 50%; inconclusive = about 30% to 50%; inactive = below about 30%; note: 0% is about no effect; the text of the record puts the active cut at 80%
# Target sequence (Q9GZU1 whole entry, looked up): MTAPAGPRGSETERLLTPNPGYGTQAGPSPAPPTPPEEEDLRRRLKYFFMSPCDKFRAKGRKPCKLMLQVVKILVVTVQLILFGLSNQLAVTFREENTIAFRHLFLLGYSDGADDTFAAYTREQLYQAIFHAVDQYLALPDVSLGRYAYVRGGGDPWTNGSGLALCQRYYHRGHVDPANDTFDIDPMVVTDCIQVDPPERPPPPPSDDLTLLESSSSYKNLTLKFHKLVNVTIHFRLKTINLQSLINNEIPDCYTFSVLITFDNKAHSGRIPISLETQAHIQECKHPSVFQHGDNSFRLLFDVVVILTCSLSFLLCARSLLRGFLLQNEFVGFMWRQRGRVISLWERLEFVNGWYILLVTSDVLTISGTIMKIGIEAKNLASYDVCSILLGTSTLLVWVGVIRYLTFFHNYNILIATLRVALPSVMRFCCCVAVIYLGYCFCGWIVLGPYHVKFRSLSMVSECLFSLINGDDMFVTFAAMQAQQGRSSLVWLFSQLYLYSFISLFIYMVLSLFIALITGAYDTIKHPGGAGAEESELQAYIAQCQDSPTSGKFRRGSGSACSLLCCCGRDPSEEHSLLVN
#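 Cells: TRPML1-DL, 1X Tet inducer, ~16 h at 37 degrees C/5% CO2. Dye: ABD Ca8 no-wash + quencher, 45-90 min RT. Read: 10 s baseline, compound add, 110 s agonist phase; 54-4 EC80 (4uM final), 110 s antagonist phase.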
# An asterisk follows results filed as active; u = inconclusive.
compound,PINK1 expr mod,TRPML1 ag
Cc1ccccc1-c1nc(NC(=O)CSc2ncnc3sc4c(c23)CCCC4)ns1,0.9%,0.9
COc1ccc(S(=O)(=O)c2nnn(-c3ccc(C(C)C)cc3)c2C)cc1,0.3%,1.8
Cc1ccc(NC(=O)NCc2c(-n3cccc3)sc3c2CCCC3)c(Cl)c1,4.1%,-0.6
CCCN(CCC)CCCNC(=O)c1cc2c(-c3ccc(Cl)cc3)nn(C)c2s1,6.0%,0.4
O=C(NCC(c1ccco1)S(=O)(=O)c1cccs1)c1ccccc1 (stereo not drawn),1.0%,1.3
Cc1ccc(C(C(=O)NC2CCCCC2)N(C)Cc2ccccc2)cc1 (stereo not drawn),-0.4%,2.5
CCOC(=O)c1ccc(NC(=O)CSc2cc(=O)n(CC)c3ccccc23)cc1,2.0%,-1.0
COC(=O)c1cc(NS(=O)(=O)c2cc(Br)cc3c2N(C(C)=O)CC3)cc(C(=O)OC)c1,-0.8%,-0.8
CC(=O)Nc1ccc(Nc2nc3c(S(=O)(=O)c4cc(C)ccc4C)nnn3c3ccsc23)cc1,-0.1%,-0.6
COc1ccc2cc3cc(C(=O)Nc4cc(C)c(Cl)cc4OC)oc3nc2c1,0.5%,-0.7

compound,PINK1 expr mod,TRPML1 ag
COc1ccc(C2CC(=O)c3cc(-c4nc(-c5cccc([N+](=O)[O-])c5)cs4)c(=O)n(-c4cccc(C)c4)c3C2)cc1 (stereo not drawn),0.7%,-0.4
CCCCCn1c(=O)[nH]c2cc(C(=O)N3CCN(c4cccc(OC)c4)CC3)ccc2c1=O,2.4%,1.1
CCC(C)n1c(=N)c(C(=O)NC2CCCC2)cc2c(=O)n3ccccc3nc21 (stereo not drawn),1.0%,-0.6
COc1cc(NC(=O)CSc2nccn2C)cc(OC)c1OC,-0.8%,2.1
Cc1ccc(OCC(=O)Nc2ccc3nc(SCC(=O)N4CCOCC4)sc3c2)cc1C,3.0%,3.5
O=C(NCc1ccccc1Cl)C1CCCN(C(=O)c2cnn(-c3ccc(F)cc3)c2-n2cccc2)C1 (stereo not drawn),-1.1%,2.2
Cc1cccc(OCC(=O)N2CCC(c3nc4ccccc4o3)CC2)c1C,-0.5%,2.1
CCOc1ccc(CCNC(=O)CCc2c(C)nc3c(c(C)nn3-c3ccc(C)c(C)c3)c2C)cc1,0.4%,-0.5
COc1cccc(CNC(=O)c2cc3c(s2)-c2c(C)cccc2OC3)c1,-2.3%,1.5
CCOc1ccc(C(=O)Nc2c(C(=O)c3ccccc3)oc3ccccc23)cc1,1.0%,0.0

# Four entries from above in a different format.
# Under each structure – PINK1 expr mod	TRPML1 ag
COc1ccc(C2CC(=O)c3cc(-c4nc(-c5cccc([N+](=O)[O-])c5)cs4)c(=O)n(-c4cccc(C)c4)c3C2)cc1 (stereo not drawn)
    0.7%	-0.4
CCCCCn1c(=O)[nH]c2cc(C(=O)N3CCN(c4cccc(OC)c4)CC3)ccc2c1=O
    2.4%	1.1
CCOc1ccc(CCNC(=O)CCc2c(C)nc3c(c(C)nn3-c3ccc(C)c(C)c3)c2C)cc1
    0.4%	-0.5
COc1cc(NC(=O)CSc2nccn2C)cc(OC)c1OC
    -0.8%	2.1

# Other records
compound,PINK1 expr mod,TRPML1 ag
Cc1ccc2c(c1)c1c(c(=O)n(Cc3ccccc3)c(=O)n1Cc1cccc(C(F)(F)F)c1)n2C,1.1%,-0.1
Cc1ccc(Nc2c3c(nc4nncn24)CCC3)cc1,-1.3%,0.4
Cc1ccc(NC(=O)Cn2c(=O)n(CCCC(=O)NCc3ccc4c(c3)OCO4)c(=O)c3ccccc32)cc1,2.4%,-0.2
O=C(CN1C(=O)c2ccccc2S1(=O)=O)Nc1cc(S(=O)(=O)N2CCOCC2)ccc1N1CCOCC1,-0.7%,-0.3
CNC(=O)C1CCC(Cn2c(=O)c3sccc3n(Cc3ccccc3)c2=O)CC1 (stereo not drawn),-0.8%,-0.1
CCOC(=O)C(C)Nc1ncnc2onc(C)c12 (stereo not drawn),0.0%,0.2
Cc1ccc(S(=O)(=O)Cc2nc(-c3ccc(C(=O)NCc4ccccc4)cc3)oc2C)cc1,6.3%,0.2
CCOc1ccc(CC(=O)NCc2ccc3c(c2)CCN3C(C)=O)cc1OCC,0.1%,3.1
Cc1cc(=O)[nH]c2nnc(SCc3cccc(F)c3)n12,1.0%,0.0
Cc1ccc2c(c1)Cc1c(nc(-c3ccc(Cl)cc3)nc1SCC(=O)N1CCCCC1)O2,-2.4%,-0.2

compound,PINK1 expr mod,TRPML1 ag
NC(=O)c1ccccc1NC(=O)CN1c2ccccc2S(=O)(=O)c2ccccc21,2.0%,0.6
CCOc1ccc(N2CC(NC(=O)c3ccc(Cl)cc3)CC2=O)cc1 (stereo not drawn),0.7%,0.8
O=C(CSC1=Nc2ccccc2N=C(c2ccc(F)cc2)C1)NCc1ccccc1,2.0%,0.0
CCc1ccc(OCc2ccccc2C(=O)Nc2ccc3nc(C)cc(N)c3c2)cc1,6.2%,1.2
CN(C)c1ccc(CNC(=O)CCC(=O)N2Cc3ccccc3Oc3ncccc32)cc1,1.1%,1.6
Cc1ccc(-c2nc3ccccc3n3c(-c4ccccc4)c4c(=O)n(C)c(=O)n(C)c4c23)cc1,7.4%,-0.5
O=C(CSC1=Nc2ccccc2C2=NC(Cc3ccccc3)C(=O)N12)Nc1ccccc1 (stereo not drawn),0.2%,1.0
Cc1c(C(=O)NC(C)c2ccccc2)sc2nc3n(c(=O)c12)CCCC3 (stereo not drawn),-0.7%,-0.5
O=C(CN1C(=O)C2CCCCN2c2ccc(C(=O)N3CCCC3)cc21)NCc1cccc(F)c1 (stereo not drawn),-1.2%,-0.3
O=C(Nc1sc2c(c1C(=O)Nc1ccccc1Cl)CCCC2)c1ccccc1F,1.0%,-0.7

# Quoted from above (4 entries):
compound,PINK1 expr mod,TRPML1 ag
NC(=O)c1ccccc1NC(=O)CN1c2ccccc2S(=O)(=O)c2ccccc21,2.0%,0.6
CCOc1ccc(N2CC(NC(=O)c3ccc(Cl)cc3)CC2=O)cc1 (stereo not drawn),0.7%,0.8
O=C(CSC1=Nc2ccccc2N=C(c2ccc(F)cc2)C1)NCc1ccccc1,2.0%,0.0
CCc1ccc(OCc2ccccc2C(=O)Nc2ccc3nc(C)cc(N)c3c2)cc1,6.2%,1.2

# The listing continues:
compound,PINK1 expr mod,TRPML1 ag
Cc1cc(C)c(/C=C/c2onc(C)c2S(=O)(=O)N2CCC(C(=O)N(C)Cc3ccccc3)CC2)c(C)c1,1.0%,0.3
CCCSc1oc(-c2ccco2)nc1S(=O)(=O)c1ccc(Br)cc1,0.9%,1.5
CCOc1ccc(CNC(=O)c2ccc(CSc3nc4ccncc4n3Cc3ccc(F)cc3)cc2)cc1,2.0%,0.8
Cc1c(NC(=O)c2cc(=O)c3cc(Cl)ccc3o2)c(=O)n(-c2ccccc2)n1C,1.6%,0.1
Cc1nc2ccc(S(=O)(=O)NCC(=O)Nc3ccc(C)c(Cl)c3)cc2s1,0.1%,0.5
COc1cc(Cl)c(C)cc1NC(=O)Cn1ncc2c3ccccc3n(Cc3ccccc3)c2c1=O,2.2%,1.8
CC(=O)c1ccc(N2CCN(C(=O)CCCCn3c(=O)[nH]c4ccsc4c3=O)CC2)cc1,4.7%,-1.0
CCn1cc2c(n1)-c1c(oc(C(=O)Nc3cccc(C(F)(F)F)c3)c1C)CC2,6.0%,4.2
COC(=O)c1cccc(Nc2c(-c3cc(Br)ccc3O)nc3nc[nH]n23)c1,0.8%,-0.1
COc1ccc(-n2nc(C(=O)Nc3ccc(Cl)cn3)c3c4ccccc4n(C)c3c2=O)cc1Cl,1.5%,-0.5

compound,PINK1 expr mod,TRPML1 ag
CC(=O)c1cc(-c2ccc(F)cc2)n(CCC(=O)NCc2ccc(C)cc2)c1C,-1.3%,2.1
Cc1ccc2c(=O)c(C(=O)c3ccccc3)cn(CC(=O)NCc3ccccc3)c2n1,-0.5%,2.1
COc1ccc(N2CCN(c3cc(C)nc4nc(-c5ccc(C)cc5)nn34)CC2)cc1,0.2%,-0.5
COc1cccc(N2CCN(C3C(=O)c4ccccc4N3C(C)=O)CC2)c1 (stereo not drawn),6.2%,2.1
Cc1ccccc1Cn1c2ccccc2c2cnn(CC(=O)NCCCc3ccccc3)c(=O)c21,u,2.4
CCCCCn1c(=O)[nH]c2cc(C(=O)N3CCN(c4cccc(Cl)c4)CC3)ccc2c1=O,0.4%,-0.7
CC(=O)c1ccc([N+](C)(C)C)cc1,0.5%,-0.3
COc1ccc(C(=O)Nc2ncnc3nc[nH]c23)cc1,0.1%,-0.7
COc1ccc(-n2c(=O)c3c4c(sc3n(Cc3ccc(C(C)(C)C)cc3)c2=O)CCC4)c(OC)c1,2.6%,0.2
COc1ccc(OC(C)C(=O)NCc2nc(-c3ccc(Cl)cc3)no2)cc1 (stereo not drawn),3.9%,1.1

compound,PINK1 expr mod,TRPML1 ag
CC(C)CCn1c(=O)c2sccc2n2c(CCCC(=O)NC(C)c3ccccc3)nnc12 (stereo not drawn),1.4%,0.5
O=C(Nc1ccccc1Br)N1CCN2CCCCC2C1 (stereo not drawn),1.5%,2.0
CCOc1ccc(-c2cc(OC(=O)c3ccc(OC)cc3)c3c(C)oc(C)c3c(=O)c2)cc1,-4.5%,1.0
CCOc1ccc(C(=O)NCc2ccc3c(c2)CCN3C(=O)c2ccc(Cl)cc2)cc1,7.5%,-0.2
CC(Oc1ccccc1)C(=O)Nc1nnc2n1CCS2 (stereo not drawn),-0.6%,1.7
COC(=O)c1c(NC(=O)c2nc(SCc3ccc(C)cc3)ncc2Cl)sc2c1CCCC2,1.5%,0.3
Cc1ccc(Cn2c(C)c3cnn(CC(=O)O)c(=O)c3c2C)cc1,1.3%,-0.4
COc1cc(NC(=O)C2CCCN(S(=O)(=O)c3ccc4c(c3)oc(=O)n4C)C2)c(C(=O)O)cc1OC (stereo not drawn),0.6%,-0.7
CC(C)CN(CCCNC(=O)c1cc(-c2cccs2)nc2ccccc12)CC(C)C,2.2%,0.3
COc1ccccc1-c1nnc(SCCOc2ccccc2C)o1,2.1%,2.3

compound,PINK1 expr mod,TRPML1 ag
CCC(Sc1nc2nccnc2c(=O)n1Cc1ccc(Cl)cc1)C(=O)NC1CCCCC1 (stereo not drawn),1.1%,0.3
CCOC(=O)c1cnc(NCc2ccc(Cl)cc2)c2ccccc12,28.5%,0.2
Cc1oc2ncn(C)c(=O)c2c1C(=O)N1CCN(c2ccccc2)CC1,1.2%,-0.8
Nc1ncnc2c1[nH]c(=S)n2C1OC(CO)C(O)C1O (stereo not drawn),1.4%,-1.0
Fc1ccc(Cn2c(-c3cccc(Br)c3)nc3ccccc32)cc1,11.1%,2.9
COc1ccccc1NC(=O)c1cc2c(=O)oc3ccc(C)cc3c2s1,0.2%,0.1
CCc1ccc(NC(=O)CSc2ncc(S(=O)(=O)c3cc(C)ccc3C)c(=O)[nH]2)cc1,-0.8%,0.6
CN(c1nnc(NC(=O)Nc2ccc(Br)cc2)s1)C1CCCCC1,-1.0%,-0.6
CCOC(=O)c1c(C)oc2c1cc(NS(=O)(=O)c1ccc(C)cc1)c1ccccc12,7.5%,7.4
Cc1ccc(NC(=O)c2oc3ccc(S(=O)(=O)N(C)C4CCCCC4)cc3c2C)cc1Cl,-0.8%,0.5

compound,PINK1 expr mod,TRPML1 ag
CSc1ncc(C(=O)N2CCN(c3ccc(Cl)cc3)CC2)c(C)n1,0.6%,2.3
CCN1/C(=C/C=C/C=C/c2sc3ccccc3[n+]2CC)Sc2ccccc21,u,-0.5
CC(C)CNC(=O)C(=O)Nc1c2c(nn1-c1ccccc1)CS(=O)(=O)C2,0.3%,-0.4
COc1c(Cl)cc(C(=O)N(Cc2ccccc2F)C2CCS(=O)(=O)C2)cc1Cl (stereo not drawn),0.1%,-0.8
CCS(=O)(=O)c1nc(S(=O)(=O)c2ccc(C)cc2)c(NC)s1,1.2%,-0.1
CCn1ccc2cc(S(=O)(=O)N3CCCN(C(=O)NCC(C)C)CC3)ccc21,-0.3%,3.1
CCCOc1ccc(/C=C/C(=O)Nc2sc3c(c2C(=O)OCC)CCC(C)C3)cc1OC (stereo not drawn),-1.1%,-0.8
O=S(=O)(NCc1ccccc1Cl)c1ccc(N2CCCCS2(=O)=O)cc1,1.3%,1.6
CC(C)Oc1ccc(CNC(=O)c2ccc(CS(=O)c3cccc(Cl)c3)o2)cc1 (stereo not drawn),-0.3%,-0.8
CCc1ccccc1NC(=O)c1cc(S(=O)(=O)N2CCCC2)cn1C,0.3%,0.2
O=c1ccc(-c2ccccc2)nn1Cc1c(F)cccc1Cl,-0.8%,1.7
O=C(Nc1ccc(OC(F)(F)F)cc1)c1nc2ccccc2nc1N1CCCCC1,11.3%,1.4
O=c1cc2nc(-c3ccccc3)nc(SCCOc3ccc(Cl)cc3)n2[nH]1,-0.1%,-1.0

# An excerpt; the hit share may differ from the screen's.
